# Mtb growth: M. tuberculosis H37Rv growth inhibitors, H37Rv strain (AID 1626) | actives 0.95% (n = 220,000) | M. tuberculosis H37Rv growth inhibition; higher % means a stronger effect | inhibition, % at 10 µM; hits with a dose series show IC50 in µM;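 active = confirmed in a dose series; inconclusive = inhibition above 80% but not taken into the dose series; inactive = below 80% or under 30% at every dose of the series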;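 also: bacteria incubated seven days before Alamar blue readout; 0% = bacteria only wells and 100% = bacteria with antibiotic wells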
# YopH inh: blocks Yersinia enterocolitica YopH tyrosine phosphatase. fluorescence Ex485/Em525. inhibition, %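 (about 10 µM by stock and volumes)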. actives 0.16% (n = 140,000);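 active = inhibition of 50% or more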;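 also: controls were vehicle for no effect and minimum signal wells for full effect; inactives centre near -20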
# RecA splice inh: blocks M. tuberculosis RecA intein splicing; cell-free RecA intein splicing, fluorescence; inhibition, %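 (about 9 µM by stock and volumes)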; actives 0.75% (n = 290,000); P9WHJ3; in the data active = inhibition above about 30%; inconclusive = no clear call, values can overlap the other calls;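 also: 0% = vehicle wells and 100% = reference inhibitor control wells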
# Target sequence (P9WHJ3 whole entry, looked up, canonical isoform): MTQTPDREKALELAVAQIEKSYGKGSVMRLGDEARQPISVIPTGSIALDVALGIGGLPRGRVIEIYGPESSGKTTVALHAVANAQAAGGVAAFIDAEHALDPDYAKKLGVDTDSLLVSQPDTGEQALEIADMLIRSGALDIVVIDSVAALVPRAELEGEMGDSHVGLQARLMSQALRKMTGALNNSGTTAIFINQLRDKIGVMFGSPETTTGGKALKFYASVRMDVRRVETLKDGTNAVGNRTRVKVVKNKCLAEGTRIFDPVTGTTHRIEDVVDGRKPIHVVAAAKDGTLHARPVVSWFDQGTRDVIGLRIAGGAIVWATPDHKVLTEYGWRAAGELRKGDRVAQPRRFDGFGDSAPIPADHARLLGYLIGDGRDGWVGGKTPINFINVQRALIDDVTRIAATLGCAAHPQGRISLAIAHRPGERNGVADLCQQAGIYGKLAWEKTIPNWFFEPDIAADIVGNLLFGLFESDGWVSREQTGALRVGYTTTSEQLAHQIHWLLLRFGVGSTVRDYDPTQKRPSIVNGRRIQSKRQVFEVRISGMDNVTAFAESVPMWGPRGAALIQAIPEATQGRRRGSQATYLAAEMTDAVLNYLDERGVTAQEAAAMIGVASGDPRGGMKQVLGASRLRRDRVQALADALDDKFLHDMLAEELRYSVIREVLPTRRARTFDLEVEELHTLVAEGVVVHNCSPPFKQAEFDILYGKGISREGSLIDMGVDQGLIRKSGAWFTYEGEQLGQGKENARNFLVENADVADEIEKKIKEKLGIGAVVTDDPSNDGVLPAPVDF
# Mtb bLac sens: beta-lactam sensitization of Mtb H37Rv; M. tuberculosis H37Rv growth with meropenem, percent inhibition; hits of this screen are not shown here; inhibition, % at 25 µM; actives 0.27% (n = 330,000);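 active = about 74% or more and at least 40 points above the plate without the antibiotic, then above 30% in a dose series; inconclusive = first-round hits that could not be retested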;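 also: growth measured after seven days incubation then overnight dye step; 0% = bacteria only wells and 100% = bacteria with antibiotic; twin plates without the antibiotic show which effects depend on it; some results filed as inactive read as strong as hits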
# Arbovirus anti: antivirals against arbovirus infection; arbovirus infection cell-based antiviral screen; inhibition, % at 10 µM; actives 0.37% (n = 200,000);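 active = inhibition from about 30%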;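 also: bluetongue infection of BSR cells; cell survival read as ATP light after 72 h; 0% = infected wells without compound and 100% = uninfected wells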
# Arbovirus anti repeat: further read-out of Arbovirus anti, marked with its call; inhibition, %; measured here: 10K subset replicate screen; many hits read low in the repeat;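 first of two repeat runs on a subset; 0% = infected and 100% = uninfected wells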
# An asterisk follows results filed as active; u = inconclusive; x = not tested or not shown. A portion of the library, so the mix of outcomes need not match the whole.
SMILES,Mtb growth,YopH inh,RecA splice inh,Mtb bLac sens,Arbovirus anti,others
CCn1c(CNC(=O)c2ccccc2OC)nnc1SCC(=O)c1ccc(F)cc1,x,x,0.1,5,x,
COCCCN1C(=O)C(=O)/C(=C(/O)c2ccc(OC)cc2)C1c1cccc(OC)c1 (stereo unspecified),0%,-67,-1.0,-8,-3,
Clc1ccccc1OCCn1ccnc1,-3%,-14,0.2,22,7,
CCOC(=O)c1c(NC(=O)COC(=O)c2ccc(O)cc2)sc(C(=O)NC)c1C,x,x,-0.4,-2,x,
Cc1cc(C)c(C#N)c(SCC(=O)N2CCCCC2)n1,0%,1,-3.8,-8,-1,
Nc1c(C(=O)c2ccc(Br)s2)oc2ccccc12,4%,-35,-6.4,4,24,Arbovirus anti repeat=17
O=C(COC(=O)CCc1nc2ccccc2c(=O)[nH]1)NC1CCS(=O)(=O)C1 (stereo unspecified),3%,x,-3.0,-7,3,
CCC(=O)N1CCN(c2ccc(NC(=O)c3ccc4ccccc4c3)cc2)CC1,x,x,-3.2,2,x,
CN(CCOc1ccccc1)C(=O)C1CCC(=O)N(CCCN2CCOCC2)C1 (stereo unspecified),x,x,7.2,u,x,
CCc1noc(C)c1C(=O)N(C)CC(=O)Nc1ccc(Cl)c(Cl)c1,x,x,-1.2,-19,x,
O=c1c2ccccc2nc(/C=C/c2ccc3c(c2)OCO3)n1-c1cccc(O)c1,8%,15,0.5,-4,-17,
CC1CCN(CC(O)CN2c3ccccc3Sc3ccccc32)CC1 (stereo unspecified),x,x,-2.5,-6,x,
Cc1ccc(-n2nc(C)c3c(C(=O)OCC(=O)N(C)C4CCS(=O)(=O)C4)cc(-c4ccccc4)nc32)cc1 (stereo unspecified),16%,-28,x,-1,10,
Cc1ccc(S(=O)(=O)N(C)c2ccc(OC(=O)c3ccc(=O)[nH]c3)cc2)cc1,5%,x,2.5,0,6,
COc1ccc(-c2ccc(S(=O)(=O)n3nc(OC(=O)c4cccs4)cc3N)cc2)cc1,-15%,x,3.1,-10,3,
COc1ccc(-n2cc(-c3ccc(C)cc3)[n+]3c2SCC3)cc1,7%,-19,-0.5,0,12,
NS(=O)(=O)c1ccc(NC(=S)NCCc2ccccc2)cc1,1%,x,-1.5,-2,7,
O=C(CCCc1ccccc1)Nc1ccc(S(=O)(=O)N2CCOCC2)cc1,3%,x,1.2,-1,x,
Cc1nonc1NC(=O)CSc1nnc(N)s1,x,x,2.0,-2,x,
COc1ccc(NC(=O)C2CCCO2)cc1 (stereo unspecified),-10%,8,0.9,-5,-1,
Cc1nc(-c2ccc(Cl)cc2)sc1C(=O)CBr,-3%,x,22,0,2,
COc1ccc(OCCCC(=O)Nc2nc(-c3ccccn3)cs2)cc1,u,x,-1.3,85,-3,
Cc1c(NS(=O)(=O)c2ccc3c(c2)CCN3C(=O)C2CC2)c(=O)n(-c2ccccc2)n1C,x,-43,-0.5,-2,1,
CC(=O)c1ccc(S(=O)(=O)N2CCC(c3nc4ccccc4[nH]3)CC2)cc1,x,x,1.5,0,x,
COc1ccc(/C(=N\O)c2nccc3cc(OC)c(OC)cc23)cc1OC,-2%,x,0.2,-13,-3,
# (listing goes on)
SMILES,Mtb growth,YopH inh,RecA splice inh,Mtb bLac sens,Arbovirus anti,others
O=S(=O)(NCCOCC(F)(F)C(F)F)c1ccc2oc3ccccc3c2c1,12%,-52,5.0,-8,9,
Cc1csc(NC(=O)c2ccc(Cn3nc(C)c(Br)c3C)o2)n1,x,x,2.8,6,x,
COc1ccccc1CNC(=O)C1CCN(C(=O)c2sccc2-n2cccc2)CC1,x,x,-2.5,2,x,
Cn1c(CN2CCCC2)nc2cc(NC(=O)c3ccco3)ccc21,-4%,-7,0.0,5,-3,
COc1ccc(C(=O)Oc2ccc(Br)cc2C(=S)N2CCOCC2)cc1,x,x,9.0,-1,x,
CCCCNc1c(-c2ccc(-c3cccc(Cl)c3)cc2)nc2ccccn12,x,x,-35,99,x,
COc1cc2[nH]c(=S)n(C3CCN(Cc4ccccc4)CC3)c(=O)c2cc1OC,6%,x,-1.7,3,-2,
CC1CC(C)CN(S(=O)(=O)N2CCC(C(=O)NCc3ccco3)CC2)C1 (stereo unspecified),1%,x,-2.0,4,4,
CN1C(=S)SC(/[N+]([O-])=C\c2ccccc2F)C1(C)C (stereo unspecified),-4%,x,-0.4,-6,x,
O=C(Nc1ccccc1Oc1cccnc1)C1CCCN(Cc2ccc(F)cc2)C1 (stereo unspecified),x,x,2.6,-8,x,
O=C(Nc1cc(C(F)(F)F)ccc1N1CCOCC1)c1ccc(Br)o1,22%,-24,3.7,0,7,
Cc1cc(C)n(CCN(C)Cc2nc(Cc3ccccc3F)no2)n1,-3%,x,-0.5,1,0,
O=C(O)CCc1ccc(-c2ccccc2)n1CC(=O)O,-7%,-45,-2.1,5,4,
COc1cccc(C2OC(=O)c3ccccc3N2C(C)=O)c1OC(C)=O (stereo unspecified),-1%,3,1.8,-10,-7,
O=C(NCC1CCN(S(=O)(=O)c2ccccc2)CC1)Nc1ccc(F)cc1,4%,x,1.4,-1,x,
CCO[C@@H]1OC(C(=O)Nc2ccccc2)=C[C@H](c2csc3ccccc23)[C@H]1CCCO,-1%,x,10.0,14,-21,
Cc1ccc(C(=O)Nc2ccc3c(c2)OCCO3)o1,-7%,-13,1.5,2,-5,
CCCCNc1cc(C)oc(=O)c1C(C)=O,-5%,11,-5.7,3,-2,
Cc1ccc(S(=O)(=O)N(C)CC(=O)Nc2cccc(C)n2)cc1,-6%,23,0.4,4,0,
S=c1nc(-c2cc(Cl)ccc2Cl)[nH][nH]1,-1%,x,-1.1,-11,1,
COc1ccccc1C(=O)N(C)c1nnc(-c2ccccc2)s1,x,x,3.2,10,x,
COc1ccc(/C=C/C(=O)Nc2ccc3c(c2)OCCO3)cc1OC,8%,-11,0.8,3,19,
CCOC(=O)c1sc2nc(C)[nH]c(=O)c2c1C,-12%,x,-0.3,7,x,
CC1CC(NC(=O)CC#N)CC(C)(C)C1 (stereo unspecified),x,x,-3.2,4,x,
COc1ccc(S(=O)(=O)c2ccc(OC)cc2)cc1,-8%,-13,-0.2,0,-1,

# Two records picked at random from the list so far:
SMILES,Mtb growth,YopH inh,RecA splice inh,Mtb bLac sens,Arbovirus anti,others
O=C(Nc1ccccc1Oc1cccnc1)C1CCCN(Cc2ccc(F)cc2)C1 (stereo unspecified),x,x,2.6,-8,x,
Cc1ccc(C(=O)Nc2ccc3c(c2)OCCO3)o1,-7%,-13,1.5,2,-5,

# Following part
SMILES,Mtb growth,YopH inh,RecA splice inh,Mtb bLac sens,Arbovirus anti,others
O=C(NCc1ccc2[nH]c3c(c2c1)CCCC3)c1ccc(S(=O)(=O)N2CCCC2)cc1,2%,-13,-15,-4,-13,
O=C(Nc1c(C(=O)Nc2ccccc2)cnn1-c1ccccc1)c1ccco1,0%,-37,x,3,1,Arbovirus anti repeat=4
CC(Oc1ccccc1)C(=O)N=C1SC2CS(=O)(=O)CC2N1c1ccccc1 (stereo unspecified),x,x,1.1,-8,x,
O=C(c1ccc2c(c1)OCO2)C1CCCN(CC2CCCCC2)C1 (stereo unspecified),6%,x,-1.3,0,-3,
Cc1cccc(N2CCN(C(=O)/C=C/c3ccco3)CC2)c1C,2%,-27,1.6,8,4,
c1ccc(C2CC3CC(c4ccco4)N2O3)cc1 (stereo unspecified),-11%,-123,1.8,-6,3,
CCOc1cc2[nH]c(=S)n(Cc3ccc(C(=O)NCCN(CC)CC)cc3)c(=O)c2cc1OCC,x,x,-3.1,-15,x,
CN(C)S(=O)(=O)c1cccc(-c2nn(-c3ccccc3)cc2/C=C2\SC(=S)NC2=O)c1,14%,-3,x,17,-28,
Nc1cc(N)nc(SCCOc2ccccc2F)n1,-5%,-19,-5.1,3,-5,
Cc1cc(C)c2c(CC(=O)Nc3nccs3)coc2c1,4%,-10,-13,0,-2,
CCc1nc(Cl)c(C#N)c2c1CCCC2,-6%,-31,-1.9,0,13,
O=C(O)c1ccc(Cl)c(S(=O)(=O)Nc2ccc3cn[nH]c3c2)c1,-12%,x,12,2,2,
CC1=C(C(=O)OCC2CCCO2)C(c2ccsc2)C2=C(CCCC2=O)N1 (stereo unspecified),1%,x,-1.6,-7,4,
Cc1cc(C)cc(NC(=O)Cc2ccc(-n3cccc3)cc2)c1,7%,-11,-1.3,-7,-7,
C=CCN1C(=O)CSC1=Nc1ccc(NC(C)=O)cc1,x,x,-1.1,3,x,
Cc1oc(-c2cccs2)nc1CN1CCC(CO)(CCOc2ccccc2)CC1,-5%,x,-2.4,-6,-20,
CC1CN(c2ccc(Cl)cc2[N+](=O)[O-])CCN1S(C)(=O)=O (stereo unspecified),-3%,x,1.3,-6,-9,
Cc1ccc(S(=O)(=O)NC2CCCC2)cc1C(N)=O,x,x,-2.9,-15,x,
O=C(CN(C(=O)c1csnn1)c1cccc2c1CCCC2)NCc1ccc(F)cc1,x,x,-2.7,-2,x,
O=C(COC(=O)[C@H](Cc1ccccc1)NC(=O)c1cccs1)Nc1ccccc1C(F)(F)F,-3%,11,4.5,-2,-1,
CCOC(=O)c1cnc2c(c(C3CC3)nn2C)c1N1CCOCC1,-8%,x,0.0,-6,x,
CCOC(=O)C(=O)N(Nc1ccc(C)cc1)c1ccc(C)cc1,13%,x,4.0,6,x,
COP(=O)(OC)c1nc(-c2ccccc2)oc1N1CCOCC1,-3%,-9,0.8,-5,1,
CCCNC(=O)COc1coc(CN2CCN(c3ccccc3)CC2)cc1=O,x,x,1.2,-2,x,
Cc1ccc(N2C(=O)Nc3ccccc3C2(O)C(=O)NCCCOC(C)C)cc1C (stereo unspecified),x,x,-1.4,6,x,
Cc1nc2nc(CC(=O)O)[nH]n2c(=O)c1[N+](=O)[O-],-4%,x,0.1,2,x,

# In the list so far, 21 contain a halogen.
SMILES,Mtb growth,YopH inh,RecA splice inh,Mtb bLac sens,Arbovirus anti,others
CCn1c(CNC(=O)c2ccccc2OC)nnc1SCC(=O)c1ccc(F)cc1,x,x,0.1,5,x,
Clc1ccccc1OCCn1ccnc1,-3%,-14,0.2,22,7,
Nc1c(C(=O)c2ccc(Br)s2)oc2ccccc12,4%,-35,-6.4,4,24,Arbovirus anti repeat=17
CCc1noc(C)c1C(=O)N(C)CC(=O)Nc1ccc(Cl)c(Cl)c1,x,x,-1.2,-19,x,
Cc1nc(-c2ccc(Cl)cc2)sc1C(=O)CBr,-3%,x,22,0,2,
O=S(=O)(NCCOCC(F)(F)C(F)F)c1ccc2oc3ccccc3c2c1,12%,-52,5.0,-8,9,
Cc1csc(NC(=O)c2ccc(Cn3nc(C)c(Br)c3C)o2)n1,x,x,2.8,6,x,
COc1ccc(C(=O)Oc2ccc(Br)cc2C(=S)N2CCOCC2)cc1,x,x,9.0,-1,x,
CCCCNc1c(-c2ccc(-c3cccc(Cl)c3)cc2)nc2ccccn12,x,x,-35,99,x,
CN1C(=S)SC(/[N+]([O-])=C\c2ccccc2F)C1(C)C (stereo unspecified),-4%,x,-0.4,-6,x,
O=C(Nc1ccccc1Oc1cccnc1)C1CCCN(Cc2ccc(F)cc2)C1 (stereo unspecified),x,x,2.6,-8,x,
O=C(Nc1cc(C(F)(F)F)ccc1N1CCOCC1)c1ccc(Br)o1,22%,-24,3.7,0,7,
Cc1cc(C)n(CCN(C)Cc2nc(Cc3ccccc3F)no2)n1,-3%,x,-0.5,1,0,
O=C(NCC1CCN(S(=O)(=O)c2ccccc2)CC1)Nc1ccc(F)cc1,4%,x,1.4,-1,x,
S=c1nc(-c2cc(Cl)ccc2Cl)[nH][nH]1,-1%,x,-1.1,-11,1,
Nc1cc(N)nc(SCCOc2ccccc2F)n1,-5%,-19,-5.1,3,-5,
CCc1nc(Cl)c(C#N)c2c1CCCC2,-6%,-31,-1.9,0,13,
O=C(O)c1ccc(Cl)c(S(=O)(=O)Nc2ccc3cn[nH]c3c2)c1,-12%,x,12,2,2,
CC1CN(c2ccc(Cl)cc2[N+](=O)[O-])CCN1S(C)(=O)=O (stereo unspecified),-3%,x,1.3,-6,-9,
O=C(CN(C(=O)c1csnn1)c1cccc2c1CCCC2)NCc1ccc(F)cc1,x,x,-2.7,-2,x,
O=C(COC(=O)[C@H](Cc1ccccc1)NC(=O)c1cccs1)Nc1ccccc1C(F)(F)F,-3%,11,4.5,-2,-1,
